Source: PubChem BioAssay (National Center for Advancing Translational Sciences (NCATS))
Rango complex inh: Rango-importin beta binding inhibition; 340,000 tested, 0.031% active; Potency, µM (titrated, usually from 92.2 µM), for inactives: at the top dose inhibition of complex formation; AID 540263; Q14974; Rango CFP/YFP FRET sensor + importin beta, 45 min; active = rising FRET ratio curve, often small or poorly fitted; inconclusive = mostly compound fluorescence or quenching in the first reads; inactive = flat curves in all reads;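 note: potency is the fitted concentration of half-maximal effect; 0% = DMSO wells and 100% = buffer wells lacking importin beta; nearly all actives have a fitted effect of over 15% in size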
Target sequence (Q14974 whole entry, looked up): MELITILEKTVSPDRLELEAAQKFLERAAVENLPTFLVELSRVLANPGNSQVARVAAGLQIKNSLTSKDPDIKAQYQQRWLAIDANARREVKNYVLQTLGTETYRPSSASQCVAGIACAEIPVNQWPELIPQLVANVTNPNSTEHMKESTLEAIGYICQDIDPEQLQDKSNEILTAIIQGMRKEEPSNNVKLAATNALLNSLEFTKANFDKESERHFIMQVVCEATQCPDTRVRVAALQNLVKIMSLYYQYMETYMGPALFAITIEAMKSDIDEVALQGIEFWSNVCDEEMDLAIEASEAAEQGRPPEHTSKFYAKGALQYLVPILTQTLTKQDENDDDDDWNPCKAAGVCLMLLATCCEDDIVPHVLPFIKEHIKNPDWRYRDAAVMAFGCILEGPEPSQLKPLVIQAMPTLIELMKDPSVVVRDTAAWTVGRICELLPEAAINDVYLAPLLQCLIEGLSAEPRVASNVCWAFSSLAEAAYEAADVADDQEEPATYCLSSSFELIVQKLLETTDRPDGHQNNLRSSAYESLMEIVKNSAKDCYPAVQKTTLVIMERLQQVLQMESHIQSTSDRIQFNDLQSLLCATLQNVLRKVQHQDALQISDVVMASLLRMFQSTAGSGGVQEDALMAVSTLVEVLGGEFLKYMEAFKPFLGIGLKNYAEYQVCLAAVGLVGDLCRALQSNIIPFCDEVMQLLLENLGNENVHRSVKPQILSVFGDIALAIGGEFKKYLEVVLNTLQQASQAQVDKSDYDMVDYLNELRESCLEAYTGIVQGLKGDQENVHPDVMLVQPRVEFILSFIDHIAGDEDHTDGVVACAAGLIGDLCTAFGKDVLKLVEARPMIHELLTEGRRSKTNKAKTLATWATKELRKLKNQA
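FRET biosensor Rango (snurportin 1 IBB between N-terminal EYFP and C-terminal Cerulean), 50 nM in PBS/1 mM DTT/0.02% Tween-20/0.1% BSA, preincubated 5 min RT with compound; 0.125 microM importin beta added, 45 min RT, CFP/YFP FRET ratio read.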
miR-21 FLuc: raises the signal of a miR-21 reporter. Potency, µM (titrated, usually from 38.3 µM), without a hit: at the highest dose reporter change, positive = more light. HeLa miR-21 FLuc reporter, luciferase, 48 h. 340,000 tested, under 10 active. AID 2288; active = well fitted rising curve with a large enough effect; inconclusive = small, poorly fitted or top-dose-only effect; inactive = no such curve, though single readings can be large or run the other way;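 note: % of control where 0% means no effect; miR-21 action dims this reporter so a rising signal means less miR-21 action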
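HeLa cells stably expressing CMV-driven firefly luciferase with a downstream miR-21 binding sequence, endogenously expressing miR-21, were treated with titrations (up to about 40uM final) for 48 hours at 37 degree Celsius. Luciferase luminescence was read after lysis.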
GLA inh pH 4.5: blocks human alpha-galactosidase A at pH 4.5; P06280; purified enzyme, 4-MU-alpha-Gal fluorescence, pH 4.5; activity change, negative = inhibition, % at 105 µM; 230,000 tested, under 10 active; inconclusive = small, poorly fitted or top-dose-only inhibition, or a rising curve; inactive = flat fitted curve, though single readings scatter; no compound was filed as active;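 note: 0% = full activity with enzyme and -100% = basal without enzyme; dose as in the result columns while the protocol names 77 µM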
Rango dissoc inh: prevents RanGTP from dissociating the Rango-importin beta complex; O95149+P62826; Potency, µM (series often up to 46.1 µM), for the others: at the highest dose activity change, negative = inhibition; Biochemical FRET Rango-importin beta, RanGTP-induced dissociation; 340,000 tested, 0.071% active; active means falling FRET ratio curve, often poorly fitted, with flat reads before Ran was added; inconclusive means other falling curves, or compound fluorescence or quenching; inactive means flat or rising ratio curve;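 note: potency is the fitted concentration of half-maximal effect; % of control where 0% means no effect; nearly all actives have a fitted effect of over 45% in size; -100% = wells without RanGTP and RCC1; the record marks most hits as doubtful in a second field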
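Rango FRET biosensor (snurportin-1 IBB flanked by N-terminal EYFP and C-terminal CFP10) at 0.1 uM, with 0.25 uM importin beta in PBS, 1mM DTT, 0.02% Tween-20, 0.1% BSA. 0.6 uM Ran, 2mM GTP and 0.2 uM RCC1 were then added for 45 min at room temperature. Inhibition read as loss of FRET rise.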
* marks the source's active call; other numbers are inactive results; ? = inconclusive; · = no result given; [ ] = another dose, or the depositor's remark.

Each structure is followed by: Rango dissoc inh | miR-21 FLuc | Rango complex inh | GLA inh pH 4.5
- CCOc1ccc(/C=N/NC(=O)c2ccc(Cn3cc(Br)cn3)o2)cc1
→ -5.7% | -25.0% | -2.6% | ?
- COc1ccc(-c2cc(C(=O)N3CCN(c4ccccn4)CC3)c3ccccc3n2)cc1
→ 0.0% | 0.4% | -5.1% | 0.9
- COc1ccc(CN2CCN(C(=O)c3ccc4nc(N5CCOCC5)sc4c3)CC2)c(OC)c1OC
→ 0.8% | -0.6% | ? | -0.6
- O=C1C=CC(=O)N1Cc1ccccn1
→ 21.8% | · | -3.0% | ·
- O=C1NN(c2ccccc2)C(=O)/C1=C/c1coc2ccccc2c1=O
→ ? | -66.3% | ? | 5.7
- O=C1CCCCCN1C(=O)c1ccccc1
→ -14.1% | · | 1.6% | ·
- COc1cccc2c1cc1c(=O)n(CC(=O)NCCCc3ccccc3)nc(C)n12
→ -7.9% | 0.3% | 1.2% | ·
- O=c1[nH]c2ccccc2nc1Cc1ccc(Cl)cc1
→ 15.9% | -11.9% | -2.0% | ·
- Cc1csc2nc(SCC(=O)Nc3ccccc3F)[nH]c(=O)c12
→ -2.2% | 2.1% | -0.6% | ·
- O=C(c1ccc(Cl)c(S(=O)(=O)N2CCCCCC2)c1)N1CCN(CCO)CC1
→ 8.5% | -0.2% | 0.3% | -3.5
- CCC(C)(C)C1CCC2(CC1)NC(=O)N(CC(=O)N(C)CCOc1ccc(Cl)cc1)C2=O (stereo not drawn)
→ 48.7% | · | -3.3% | ·
- CCOC(=O)c1[nH]c2ccc(OC)cc2c1NC(=O)CN1CCN(c2ccccn2)CC1
→ · | -1.2% | · | 0.7
- Cn1nc([N+](=O)[O-])nc1Oc1ccc(C(C)(C)C)cc1
→ -3.0% | -7.1% | 0.6% | 2.4
- Cc1ccc(S(=O)(=O)N2CCC(=O)N(CCOCc3cccc(C(F)(F)F)c3)CC2)cc1
→ -2.2% | 1.6% | 0.0% | -10.5
- CC(C)(C)c1ccc(-c2nc(NCc3cccnc3)c3ccccc3n2)cc1
→ -12.4% | -25.1% | 0.9% | -6.4
- OCCC1CN(Cc2ccncc2)CCN1C1CCCC1 (stereo not drawn)
→ -9.8% | 0.1% | 2.8% | -1.1
- CCCCC(=O)Nc1cc(C)c(NC(=O)c2ccco2)cn1
→ 7.6% | -11.5% | -0.9% | ·
- COc1ccc(/C=C/C(=O)OC2CCCN(C)C2)cc1 (stereo not drawn)
→ -12.6% | -3.0% | 0.6% | 6.9
- Cc1ccccc1C(=O)c1cccn1CC(=O)O
→ 0.7% | 1.7% | 1.1% | 5.0
- O=C(COc1ccc2ccc(=O)oc2c1)Nc1c(Cl)cccc1C(F)(F)F
→ -0.1% | -3.4% | 1.0% | ·
- FC(F)(F)c1cnc(COc2cc(Cl)cc(Cl)c2)c(Cl)c1
→ 8.0% | -0.4% | 1.4% | -6.9
- CCCn1c(=O)[nH]c(=O)c2c1nc(-c1ccc(OC(F)F)c(OC)c1)n2CCOC
→ -12.2% | -14.2% | ? | 2.5
- O=C(NCc1ccco1)C1(c2ccccc2)CCCC1
→ 17.6% | -8.9% | 1.1% | 3.2
- COc1cc(/C=N/N2CCN(c3ccccc3)CC2)cc(OC)c1OC(C)=O
→ 3.6% | -3.2% | -0.5% | ·
- c1cncc(-c2noc(C34CC5CC(CC(C5)C3)C4)n2)c1
→ -14.3% | -40.1% | 2.6% | -8.2
- Cc1cccn2c(=O)c(C=NCCO)c(NCc3ccco3)nc12
→ -5.5% | -10.9% | 1.4% | 1.1
- S=C(NCc1ccco1)N1CCN(c2ccccn2)CC1
→ -8.4% | 1.1% | -0.1% | 5.1
- C=CCOc1c(Br)cc(/C=C2\SC(=Nc3ccccc3)NC2=O)cc1OC
→ -5.5% | -2.5% | ? | ·
- Cc1c(C(=O)N/N=C/c2ccccc2)sc(=S)n1C
→ 4.8% | -4.3% | 0.2% | -0.6
- COc1ccc(N/C(=C(/C(Cl)=C(Cl)Cl)[N+](=O)[O-])n2nnc3ccccc32)cc1OC
→ · | -1.3% | · | 4.6

Entries of single compounds from above. Order of screens: Rango dissoc inh | miR-21 FLuc | Rango complex inh | GLA inh pH 4.5
Cc1c(C(=O)N/N=C/c2ccccc2)sc(=S)n1C is listed with 4.8% | -4.3% | 0.2% | -0.6
O=C1CCCCCN1C(=O)c1ccccc1 is listed with -14.1% | · | 1.6% | ·

Other structures.
Each structure is followed by: Rango dissoc inh | miR-21 FLuc | Rango complex inh | GLA inh pH 4.5
- Nc1[nH]ncc1-c1ccc(F)cc1
→ 13.3% | 7.1% | -4.1% | -5.7
- COc1cnc(SCc2c(Cl)cccc2Cl)nc1Cl
→ 3.1% | 5.0% | 0.1% | -7.5
- CC(C)(C)OC(=O)N(CCc1ccccc1)Cc1ccc(OCc2cccc(NC(=O)C3CCC3)c2)cc1
→ -7.8% | · | -1.2% | ·
- CCc1ccc(NC(=O)CCc2nnc3ccc(N4CCC5(CC4)OCCO5)nn23)cc1
→ -22.1% | -3.4% | -0.3% | ·
- COC(=O)c1sc(NC(=O)COc2c(C)cccc2C)nc1C
→ 6.3% | 1.0% | -2.6% | -1.6
- CC(=O)c1cnc2cc(-c3cccc(Br)c3)nn2c1C
→ 1.0% | -58.3% | -1.0% | 7.2
- CSC(=NCc1ccco1)NC#N
→ 0.4% | -1.2% | 0.3% | -9.0
- CCOc1cc(-c2nc(C)c(C(C)=O)n2O)ccc1OCC(=O)Nc1cccc(C)c1
→ -6.2% | 14.6% | 0.2% | 5.5
- Cc1cc(Cl)ccc1N(CC(=O)NCc1ccc2c(c1)OCO2)S(C)(=O)=O
→ 6.6% | -0.7% | 3.3% | 9.2
- Cc1ccc(C(=O)C(C)N(C(=O)c2ccc(Cl)cc2Cl)N2C(=O)CCCC2=O)cc1 (stereo not drawn)
→ 6.6% | 0.2% | 1.4% | 6.9
- COC(=O)c1c(NC(=O)c2ccc(S(=O)(=O)N3CCOCC3)cc2)sc2c1CCN(C(C)C)C2
→ -18.1% | -6.5% | ? | ·
- COc1ccc2c(c1)CN(C)S(=O)(=O)c1ccccc1-2
→ -0.8% | · | 7.5% | ·
- CCCCC(=O)Nc1ccc(NC(=O)c2cccs2)cn1
→ -3.8% | · | 0.0% | ·
- Brc1ccc(-c2csc(NC3=NCCCCC3)n2)cc1
→ -5.1% | -67.0% | -1.0% | -10.6
- Cc1ccc(C(=O)Nc2ccccc2N2CCCC2)s1
→ -19.8% | · | 2.7% | ·
- CCCN1CCC(NC(=O)C2CC=CCC2C(=O)O)CC1 (stereo not drawn)
→ 0.6% | -0.1% | -2.2% | ·
- Cc1csc(=O)n1CC(=O)OCC(=O)c1c(N)n(CC(C)C)c(=O)n(C)c1=O
→ 0.9% | · | -0.9% | ·
- CCOc1cc(Br)c(C(=O)O)cc1OC
→ -4.2% | 0.1% | -0.5% | 9.9
- O=C(CSc1nc2ccccc2[nH]1)N1CCN(S(=O)(=O)c2ccc(Cl)cc2)CC1
→ -8.3% | -3.8% | -2.7% | -7.6
- Cc1cc(C)nc(SCC(=O)NC2CCCC2)n1
→ -10.5% | -5.4% | 5.6% | -7.7
- O=C(CSc1nnc(CNC(=O)c2cccs2)o1)NCCc1ccccc1
→ -5.5% | 0.8% | 3.0% | -4.5
- CC(=O)c1ccc2noc(-c3ccc(F)cc3)c2c1
→ ? | -12.2% | ? | -2.9
- CCOc1ccc(N(CC(=O)Nc2ccc(OC)cc2)S(=O)(=O)c2c(C)noc2C)cc1
→ -0.3% | -3.7% | 3.5% | -0.8
- COC(=O)c1sccc1NC(=S)N1C(C)CCCC1C (stereo not drawn)
→ 16.7% | -1.7% | 2.0% | -1.4[21.1 µM]
- Cc1ccccc1NC(=S)NCCc1ccc(S(N)(=O)=O)cc1
→ 5.5% | -4.6% | 0.3% | -0.4
- O=C(CSc1nncn1-c1ccccc1F)NC1CCCCC1
→ -7.5% | · | 2.6% | ·
- COC(=O)Cn1c(=NC(=O)c2cc(OC)cc(OC)c2)sc2cc(OC)ccc21
→ -13.9% | -13.9% | 1.5% | 0.6
- Cc1cccc(NC(=O)c2cc3n(n2)C(C(F)(F)F)CC(C2CC2)N3)c1C (stereo not drawn)
→ -4.8% | 1.3% | -0.4% | 4.4
- COCc1cc(C)nc2sc(C(=O)Nc3ccc(C(=O)OC)cc3)c(N)c12
→ ? | -14.5% | ? | ·
- Cc1cc(C(=O)COC(=O)c2nc3nccc(C)n3n2)c(C)n1CC1CCCO1 (stereo not drawn)
→ 0.1% | -1.9% | -1.5% | -11.9
- Cc1ccc2nc(-c3ccc(NC(=O)COC(=O)c4ccco4)cc3)sc2c1
→ 8.0% | 23.9% | -1.0% | 9.9
- COc1ccc(OCc2nn3c(-c4ccco4)nnc3s2)cc1
→ -5.9% | -17.2% | ? | 5.4
- CSc1ccc(/C=N/NC(=O)c2cccc(O)c2)cc1
→ 9.7% | 3.2% | 2.5% | 1.7
- Cc1ccc2c(c1)nnn2C1CCN(CC(=O)Nc2ccccc2N2CCOCC2)CC1
→ 2.5% | 12.4% | -0.3% | -4.7
- CSCCC1NC(=O)N(CC(=O)Nc2ccc(-c3ccccc3)cc2)C1=O (stereo not drawn)
→ 10.7% | -26.8% | 0.3% | -8.8
- COCCNC(=O)Cn1cc(C(=S)N2CCOCC2)c2ccccc21
→ 7.0% | 1.4% | -2.9% | 3.9
- O=C1NC2(c3ccccc3)NC(=O)NC2(c2ccccc2)N1 (stereo not drawn)
→ -10.9% | · | 1.0% | ·
- Cc1ccc(NCc2nnc(SCC(=O)NCc3ccco3)n2CC2CCCO2)cc1Cl (stereo not drawn)
→ -2.1% | -9.3% | -1.4% | 6.1
- CCOc1ccc2[nH]c(C(=O)N/N=C/c3cc(OC)c(OC)c(OC)c3)cc2c1
→ -1.1% | -0.1% | -0.5% | ·
- CCCCN(c1ccccc1)S(=O)(=O)c1cccc(C(=O)Nc2c(C)n(C)n(-c3ccccc3)c2=O)c1
→ -7.6% | · | ? | ·
- Cc1onc(-c2ccccc2)c1C(=O)N/N=C/c1cn(C)c2ccccc12
→ 2.2% | 11.1% | 0.9% | 6.7
- CC(C)CNC(=O)CSc1ccc(Cl)cc1
→ 0.4% | -17.4% | 0.3% | -5.2
- CCOC(=O)Cn1c(=O)n(Cc2ccc(C)cc2)c(=O)c2cccnc21
→ 5.3% | -11.4% | -2.7% | ·
- O=S(=O)(c1cccc(C(F)(F)F)c1)N1CCC(c2nc3ccccc3[nH]2)CC1
→ 3.0% | 21.9% | 0.1% | ·
- O=C(NCc1ccco1)c1ccc2ccccc2c1
→ 3.3% | -39.2% | -0.4% | 4.3
- CCn1cc(C(=O)NC2CCC(C)CC2)c(=O)c2cc(S(=O)(=O)N3CCCCC3)ccc21 (stereo not drawn)
→ · | -19.1% | · | -6.4
- COC(=O)COc1ccsc1C(=O)OC
→ -9.6% | -0.4% | 0.2% | -16.7
- Cc1cc(C)c(C#N)c(N2CCN(C(=O)C3COc4ccccc4O3)CC2)n1 (stereo not drawn)
→ -18.1% | · | -0.2% | ·
- COc1ccc(NS(=O)(=O)c2ccc3c(c2)Cc2ccccc2-3)cn1
→ -0.3% | -1.2% | -0.8% | -12.5
- COc1ccc(CCNC(=O)c2ccnc(C(C)(C)C)c2)cc1OC
→ -12.7% | · | 2.2% | ·
- CCn1c(=S)[nH]c2cc(C(=O)OC)ccc2c1=O
→ 18.3% | -12.6% | -5.7% | 2.5
- CNc1c(NS(=O)(=O)c2ccc(C3CCCCC3)cc2)c(=O)oc2ccccc12
→ -1.2% | 8.8% | -1.6% | ·
- CNC(=S)N/N=C/c1cc(C)n(-c2ccc(Cl)c(Cl)c2)c1C
→ 6.2% | -5.3% | -0.5% | 4.2
- CN(C(=O)CCc1ccccc1)c1nnc(-c2ccncc2)s1
→ 0.0% | -0.8% | -0.4% | 5.2

Some of the compounds tested, so the mix of outcomes need not match the whole.
